Rango complex inh: qHTS Assay for Inhibitors of Rango (Ran-regulated importin-beta cargo) - Importin beta complex formation | Importin subunit beta-1 (Homo sapiens), Q14974 | Rango CFP/YFP FRET sensor + importin beta, 45 min | Potency, µM (series often up to 92.2 µM), without a hit: at the top dose inhibition of complex formation | 340,000 compounds, 0.031% hits; active = rising FRET ratio curve, often small or poorly fitted; inconclusive = mostly compound fluorescence or quenching in the first reads; inactive = flat curves in all reads;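 also: potency is read from the fitted curve at half-maximal effect; 0% = DMSO wells and 100% = buffer wells lacking importin beta; nearly all actives have a fitted effect of over 15% in size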
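Inhibition scored from the CFP 486 nm/YFP 530 nm FRET ratio 45 min after adding 0.125 microM importin beta to 50 nM Rango biosensor preincubated 5 min with compound (room temperature, PBS with DTT, Tween-20, BSA). No-importin wells as positive control.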
miR-21 FLuc: qHTS Assay for Modulators of miRNAs and/orActivators of miR-21 | HeLa miR-21 FLuc reporter, luciferase, 48 h | Potency, µM (top dose mostly 38.3 µM), without a hit: at the top dose reporter change, positive = more light | 340,000 tested, under 10 active | AID 2288, 2010; active = well fitted rising curve with a large enough effect; inconclusive = small, poorly fitted or top-dose-only effect; inactive = no such curve, though single readings can be large or run the other way;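 also: % of control where 0% means no effect; miR-21 action dims this reporter so a rising signal means less miR-21 action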
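HeLa cells endogenously expressing miR-21, stably carrying CMV-driven firefly luciferase with a downstream miR-21 binding site, 2000 cells/well. Titrations up to approximately 40 uM, 48 hours; luciferase luminescence read.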
GLA inh pH 4.5: qHTS Assay for Inhibitors of Human alpha-Galactosidase at pH 4.5. AID 1467, 2008. 230,000 tested, under 10 active. purified enzyme, 4-MU-alpha-Gal fluorescence, pH 4.5. activity change, negative = inhibition, % at 105 µM; inconclusive = small, poorly fitted or top-dose-only inhibition, or a rising curve; inactive = flat fitted curve, though single readings scatter; no compound was filed as active;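 also: 0% = full activity with enzyme and -100% = basal without enzyme; dose as in the result columns while the protocol names 77 µM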
Target sequence (P06280 whole entry, looked up): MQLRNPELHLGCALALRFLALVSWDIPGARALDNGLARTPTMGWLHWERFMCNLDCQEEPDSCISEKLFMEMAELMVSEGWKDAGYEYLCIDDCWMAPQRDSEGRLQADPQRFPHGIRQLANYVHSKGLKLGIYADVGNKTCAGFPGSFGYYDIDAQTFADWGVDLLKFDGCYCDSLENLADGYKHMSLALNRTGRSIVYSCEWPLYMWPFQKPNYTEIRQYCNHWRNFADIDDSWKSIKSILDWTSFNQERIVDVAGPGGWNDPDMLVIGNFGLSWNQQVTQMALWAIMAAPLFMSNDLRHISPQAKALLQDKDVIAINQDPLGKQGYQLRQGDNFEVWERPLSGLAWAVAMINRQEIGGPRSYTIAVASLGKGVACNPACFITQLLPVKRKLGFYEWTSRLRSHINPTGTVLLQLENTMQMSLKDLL
Rango dissoc inh: qHTS Assay for Inhibitors of RanGTP induced Rango (Ran-regulated importin-beta cargo) - Importin beta complex dissociation | Snurportin-1 (Homo sapiens) + GTP-binding nuclear protein Ran (Homo sapiens) + Importin … | Potency, µM (titrated, usually from 46.1 µM), inactives show at the top dose activity change, negative = inhibition | Biochemical FRET Rango-importin beta, RanGTP-induced dissociation | 340,000 compounds, 0.071% hits; active means falling FRET ratio curve, often poorly fitted, with flat reads before Ran was added; inconclusive means other falling curves, or compound fluorescence or quenching; inactive means flat or rising ratio curve;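 also: potency is read from the fitted curve at half-maximal effect; % of control where 0% means no effect; nearly all actives have a fitted effect of over 45% in size; -100% = wells without RanGTP and RCC1; the record marks most hits as doubtful in a second field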
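Compounds sat 5 min at room temperature with 0.1 uM Rango biosensor plus 0.25 uM importin beta, then FRET pre-read. RanGTP-RCC1 (0.6 uM Ran, 2mM GTP, 0.2 uM RCC1) added for 45 min, and the CFP/YFP post-read measured blocked complex dissociation.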
An asterisk follows results filed as active; & = joins results of further samples. These rows are one share of the data, so the mix of outcomes need not match the whole.

For COc1ccc2sc(-c3ccc(S(C)(=O)=O)cc3)c(C#Cc3cncn3C)c2c1 the results were Rango complex inh inconclusive and Rango dissoc inh inconclusive.
O=C(O)c1cc(-c2ccco2)nc2cc3ccccc3cc12 was read as Rango complex inh 0.5%, miR-21 FLuc -26%, GLA inh pH 4.5 10 and Rango dissoc inh 1%.
Screening Cc1ccc(CSCCNS(=O)(=O)c2ccccc2)cc1 returned Rango complex inh 0.2%, miR-21 FLuc -9%, GLA inh pH 4.5 -2 and Rango dissoc inh -4%.
CC(C)(C)OC(=O)NCCc1nnc(SCc2ccc(Cl)cc2)o1 was read as Rango complex inh -1.2%, miR-21 FLuc 9%, GLA inh pH 4.5 4 and Rango dissoc inh 2%.
For Cc1ccc(N=Nc2c(O)c3ccccc3[nH]c2=O)c(S(=O)(=O)N(C)C)c1 the results were miR-21 FLuc -26% and GLA inh pH 4.5 -2.
Screening COc1ccc(OC)c(N(CC(=O)O)S(=O)(=O)c2ccc(OC)c(OC)c2)c1 returned Rango complex inh 0.4%, miR-21 FLuc -2%, GLA inh pH 4.5 -3 and Rango dissoc inh -1%.
For Cc1ccccc1-c1nnc(SCC(=O)Nc2ccc3c(c2)OCCO3)n1N the results were Rango complex inh -2.2%, miR-21 FLuc -9%, GLA inh pH 4.5 6 and Rango dissoc inh -13%.
CCOC(=O)c1sc(NC(=S)NC(=O)c2ccccc2Cl)c(C(=O)OCC)c1C was read as Rango complex inh -3.8%, miR-21 FLuc -4%, GLA inh pH 4.5 -3 and Rango dissoc inh 2%.
`Cc1cc(C(=O)O)ccc1-c1ccc(/C=N/n2cnnc2)o1` gave Rango complex inh 2.3%, miR-21 FLuc -32% and Rango dissoc inh -20%.
For Cc1cc(NC(=O)CSc2nnc(CNc3ccc(F)cc3)n2C2CCCCC2)no1 the results were Rango complex inh -1.1%, miR-21 FLuc -1%, GLA inh pH 4.5 6 and Rango dissoc inh 20%.
Screening CCOc1ccc(OCC)c(NC(=O)CSc2nc3cccnc3n2C)c1 returned Rango complex inh 0.1%, miR-21 FLuc 0%, GLA inh pH 4.5 -1 and Rango dissoc inh -9%.
`CSc1ccccc1OCc1cc(C(=O)N2CCCC2c2nonc2C)no1` (stereo not given) gave Rango complex inh 1.2%, miR-21 FLuc -48% and Rango dissoc inh 35%.
COC(=O)[C@@]12CCCCN1[C@H](c1ccc(SC3CCCCC3)c(OC)c1)[C@@H]1C(=O)N(C)C(=O)[C@@H]12 was read as Rango complex inh -3.4% and Rango dissoc inh 5%.
For CC(=O)N1CCN(C(=O)COC(=O)CNC(=O)c2ccccc2C)CC1 the results were Rango complex inh -5.7% and Rango dissoc inh 5%.
CCN(CC)CCn1c2ccccc2c2nc3ccc([N+](=O)[O-])cc3cc21 was read as Rango complex inh -1.2%, miR-21 FLuc -90%, GLA inh pH 4.5 -13 and Rango dissoc inh 0%.
For Cc1noc(NS(=O)(=O)c2ccc(NC(=O)c3ccoc3C)cc2)c1C the results were Rango complex inh 0.3%, miR-21 FLuc -6%, GLA inh pH 4.5 -4 and Rango dissoc inh -2%.
`Cc1ccc(OCC(=O)N2CCN(C(=O)c3cccc(F)c3)CC2)cc1` gave Rango complex inh 0.2%, miR-21 FLuc -2%, GLA inh pH 4.5 6 and Rango dissoc inh 8%.
`CCOc1cccc(C(=O)Nc2cccc(C(=O)NCC(C)C)c2)c1` gave Rango complex inh -1.7%, miR-21 FLuc -2%, GLA inh pH 4.5 4 and Rango dissoc inh 5%.
For O=C1OCCC1N1C(=O)c2ccccc2S1(=O)=O (stereo not given) the results were Rango complex inh -1.1%, miR-21 FLuc -2%, GLA inh pH 4.5 0 and Rango dissoc inh 4%.
Screening O=C(NC(=O)c1cccc(F)c1)OC[C@@H]1CCCN2CCCC[C@H]12 returned Rango complex inh inconclusive, miR-21 FLuc -4%, GLA inh pH 4.5 -3 and Rango dissoc inh -8%.
`COc1ccc(OC)c(N(CC(=O)Nc2cccnc2)S(=O)(=O)c2ccccc2)c1` gave Rango complex inh -4.7%, miR-21 FLuc -2%, GLA inh pH 4.5 -15 and Rango dissoc inh -3%.
`COc1ccc(N2C(=O)CSC2c2cccc(F)c2)c(OC)c1` (stereo not given) gave Rango complex inh -1.2%, miR-21 FLuc 6%, GLA inh pH 4.5 -7 and Rango dissoc inh 7%.
For Cc1nnc(SCc2c(Cl)cccc2Cl)s1 the results were Rango complex inh -5.8%, miR-21 FLuc -53%, GLA inh pH 4.5 4 and Rango dissoc inh -15%.
`CCN(C(=O)CN1C(=O)NC2(CCc3ccccc32)C1=O)C1CCS(=O)(=O)C1` (stereo not given) gave Rango complex inh -6.6% and Rango dissoc inh -7%.
Screening COc1cc2cc(Oc3ccc4ccc(=O)oc4c3)c(=O)oc2cc1OC1OC(COC(=O)CC(C)(O)CC(=O)O)C(O)C(O)C1O (stereo not given) returned Rango complex inh inconclusive, miR-21 FLuc -3%, GLA inh pH 4.5 4 and Rango dissoc inh -13%.
CCCc1nnc(SCC(=O)N2CCOCC2)n1C was read as Rango complex inh 5.0%, miR-21 FLuc -5%, GLA inh pH 4.5 -15 and Rango dissoc inh 18%.
O=C(OCn1ncc(Br)c(Br)c1=O)c1ccccc1Cl was read as Rango complex inh -0.4%, miR-21 FLuc inconclusive, GLA inh pH 4.5 2 and Rango dissoc inh 1%.
`CCN(C(=O)COc1ncnc2sccc12)c1ccccc1` gave Rango complex inh inconclusive, miR-21 FLuc -2%, GLA inh pH 4.5 -2 and Rango dissoc inh -12%.
O=C(c1c(F)cccc1F)N1CCC(O)(c2ccc(F)cc2)CC1 was read as Rango complex inh -5.7%, miR-21 FLuc -2% and Rango dissoc inh -2%.
For O=C(COC(=O)c1cn(-c2ccccc2)nc1-c1cccs1)NC1CC1 the results were Rango complex inh -1.1%, miR-21 FLuc -2%, GLA inh pH 4.5 3 and Rango dissoc inh 13%.
CCC(=O)Nc1c(C#N)c2nc3ccccc3nc2n1-c1ccccc1C was read as Rango complex inh inconclusive, miR-21 FLuc -6%, GLA inh pH 4.5 inconclusive and Rango dissoc inh inconclusive.
`CCn1c(SCC(N)=O)nc2c1c(=O)n(C)c(=O)n2C` gave Rango complex inh -4.9%, miR-21 FLuc -5%, GLA inh pH 4.5 1 and Rango dissoc inh -1%.
`O=C(NCCN1C(=O)C2C3C=CC(C3)C2C1=O)Nc1ccc(Br)cc1` (stereo not given) gave Rango complex inh -3.5%, miR-21 FLuc -40%, GLA inh pH 4.5 3 and Rango dissoc inh inconclusive.
COc1cc(C(C(=O)NC2CCCCC2)N(CCN2CCOCC2)C(=O)C2COc3ccccc3O2)cc(OC)c1OC (stereo not given) was read as Rango complex inh 0.5%, miR-21 FLuc 3%, GLA inh pH 4.5 13 and Rango dissoc inh 9%.
Screening O=C(Nc1ccc([N+](=O)[O-])cc1Cl)c1cc(Cl)ccc1O returned Rango complex inh 0.2%, GLA inh pH 4.5 1&-5&1 and Rango dissoc inh 4%.
`O=c1c2ccccc2cnn1Cc1n[nH]c(=S)n1-c1ccc(F)cc1` gave Rango complex inh 7.2%, miR-21 FLuc 0%, GLA inh pH 4.5 4 and Rango dissoc inh -7%.
Cc1ccc(Nc2nnc(SCC(=O)NCC3CCCO3)s2)cc1C (stereo not given) was read as Rango complex inh 0.2% and Rango dissoc inh 0%.
For CCC1S/C(=N/N=C/c2ccco2)NC1=O (stereo not given) the results were Rango complex inh -3.3%, miR-21 FLuc -15%, GLA inh pH 4.5 -4 and Rango dissoc inh -4%.
O=C(Cn1c(=O)oc2cc(S(=O)(=O)N3CCc4ccccc43)ccc21)N1CCCCC1 was read as Rango complex inh -1.2%, miR-21 FLuc 3%, GLA inh pH 4.5 8 and Rango dissoc inh -1%.
Screening CCc1cccc(NC(=O)CCC(=O)N2CCSc3ccccc32)c1 returned Rango complex inh 0.5%, miR-21 FLuc 11%&9% and Rango dissoc inh -14%.
Cc1nc(NC(=O)c2cc3ccccc3o2)sc1C was read as Rango complex inh -2.8%, miR-21 FLuc 0% and Rango dissoc inh 0%.
Screening CCCOc1ccc(C(=O)CCC(=O)OCC(=O)N(C)c2c(N)n(Cc3ccccc3)c(=O)[nH]c2=O)cc1 returned Rango complex inh -0.3%, miR-21 FLuc -2% and Rango dissoc inh -1%.
For COc1ccc(NC(=O)CN(C)C(=O)c2ccc3c(c2)OCCO3)cc1 the results were Rango complex inh inconclusive and Rango dissoc inh 16%.
C=CCc1cc(Cl)ccc1OCCOCCNC(C)(C)C was read as Rango complex inh 3.9%, miR-21 FLuc -11%, GLA inh pH 4.5 0 and Rango dissoc inh 3%.
Cc1ccc2cc3c(nc2c1)OCC3 was read as Rango complex inh -1.8%, miR-21 FLuc -32%, GLA inh pH 4.5 2 and Rango dissoc inh -6%.

Molecules shown so far that contain a nitro group on carbon:
CCN(CC)CCn1c2ccccc2c2nc3ccc([N+](=O)[O-])cc3cc21 was read as Rango complex inh -1.2%, miR-21 FLuc -90%, GLA inh pH 4.5 -13 and Rango dissoc inh 0%.
Screening O=C(Nc1ccc([N+](=O)[O-])cc1Cl)c1cc(Cl)ccc1O returned Rango complex inh 0.2%, GLA inh pH 4.5 1&-5&1 and Rango dissoc inh 4%.

Going on with the list:
For CCOCCn1c(=O)c2c(nc3n2CCN3c2ccc(C)cc2)n(C)c1=O the results were Rango complex inh 4.8% and Rango dissoc inh 16%.
Screening CCOc1ccc(NS(=O)(=O)c2cc(C(=O)N3CC(C)OC(C)C3)ccc2C)cc1 (stereo not given) returned Rango complex inh -0.9% and Rango dissoc inh 10%.
`Cc1ccc(-c2cn3c(n2)SCC3)cc1` gave Rango complex inh -1.7%, miR-21 FLuc -51%, GLA inh pH 4.5 -6 and Rango dissoc inh -8%.
Screening [O-]C(=C(C(=S)Nc1cccc2ccccc12)[n+]1cccc(CO)c1)c1ccc(Cl)s1 returned Rango complex inh 0.1% and Rango dissoc inh -1%.
`COC(=O)c1cc(NCc2cccs2)ccc1N1CCOCC1` gave Rango complex inh inconclusive, miR-21 FLuc -13%, GLA inh pH 4.5 -8 and Rango dissoc inh -14%.
For CC(=O)NCCC(=O)Nc1cc(S(=O)(=O)N2CCCCC2)ccc1Oc1cccc(C)c1 the results were Rango complex inh -3.4%, miR-21 FLuc -1% and Rango dissoc inh inconclusive.
COc1ccc([N+](=O)[O-])cc1NC(=O)CSCc1ccc(Br)cc1 was read as Rango complex inh 1.4%, miR-21 FLuc -9%, GLA inh pH 4.5 -11 and Rango dissoc inh 16%.
Screening CC(=O)NCCC1CCCCN1C(=O)c1cc(COc2cc(C)ccc2C)on1 (stereo not given) returned Rango complex inh 0.8%, miR-21 FLuc -64% and Rango dissoc inh 23%.
Cc1nc(N)ncc1Sc1ccc(Cl)cc1 was read as Rango complex inh 4.1%, miR-21 FLuc -3%, GLA inh pH 4.5 6 and Rango dissoc inh -4%.
For Cc1noc(C)c1CN(C(=S)NC1CC1)c1ccccc1 the results were Rango complex inh -2.3%, miR-21 FLuc -1%, GLA inh pH 4.5 3 and Rango dissoc inh -6%.
Screening O=S(=O)(Nc1nc2ccccc2[nH]1)c1ccccc1 returned Rango complex inh 3.6%, miR-21 FLuc -18%, GLA inh pH 4.5 0 and Rango dissoc inh 0%.
`CCOc1ccc(/C(O)=C2/C(=O)C(=O)N(c3ncccn3)C2c2ccc(Cl)cc2)cc1` (stereo not given) gave Rango complex inh inconclusive, miR-21 FLuc 3%, GLA inh pH 4.5 -8 and Rango dissoc inh -18%.
Screening COc1cccc(C(=O)Nc2ccc(N3CCN(C(=O)c4ccco4)CC3)cc2)c1 returned Rango complex inh -0.1%, miR-21 FLuc 19% and Rango dissoc inh -7%.
`CNS(=O)(=O)c1cccc(C(=O)OCC(=O)NCc2ccccc2)c1` gave Rango complex inh -2.3%, miR-21 FLuc -3%, GLA inh pH 4.5 0 and Rango dissoc inh 1%.
